From PubChem BioAssay
Ecoli growth – E. coli growth inhibition, primary screen, OD600; hit rate 0.21% among 330,000; Escherichia coli growth, 23 h; active compounds read low; OD600 absorbance (concentration not given with the values); AID 1053175, 2014;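 active means OD600 absorbance below the run mean of sample wells minus 3.6 SD, in any replicate, cut at about 0.56 in these data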;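 further: stock transfer was 300 nL into about 60 µL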
Vif TR-FRET – inhibitors of Vif binding to APOBEC3G peptide, primary screen, biochemical, TR-FRET, GST-Vif 1-94, biotin-A3G peptide, dose response retest (AID 1117319); Virion infectivity factor (Human immunodeficiency virus type 1 group M subtype B (isolate …; TR-FRET GST-Vif / biotin-A3G peptide binding; higher % means a stronger effect; test concentration not given here; strong numbers were not always called active; one-dose inhibition, %; IC50 in µM for titrated hits; hit rate 0.57% among 260,000;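 active means above the screen mean plus three standard deviations and confirmed in dose response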;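 further: Vif residues 1-94 fused to GST binding biotinylated APOBEC3G peptide 110-148; 0% = full assay without inhibitor and 100% = GST in place of GST-Vif; retest series ran down from 100 µM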
FGF22 binding – binders of human FGF22 protein, primary screen, FGF22 synaptogenesis inhibitor project, biophysical, thermal shift, single point. recombinant FGF22 thermal shift, SYPRO orange fluorescence; percent of sucrose octasulfate shift, DMSO zero. calls only at 9.99 µM. hit rate 1.5% among 340,000;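 active means melting point raised past a set limit in the mean and every replicate; three in four hits are not shown here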
Target sequence (Q9HCT0 whole entry, looked up): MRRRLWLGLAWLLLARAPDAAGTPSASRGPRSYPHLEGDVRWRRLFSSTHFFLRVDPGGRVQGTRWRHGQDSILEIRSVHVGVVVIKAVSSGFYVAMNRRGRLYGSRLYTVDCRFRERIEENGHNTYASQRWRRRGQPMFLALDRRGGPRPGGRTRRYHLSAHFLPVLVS
Ecoli rRNA inh – reduced GFP signal of wild-type E. coli, primary screen, bacterial rRNA inhibitor project, GFP/RFP fluorescence, OD600, single point; E. coli WT GFP vs humanized-ribosome RFP mutants, 24 h; active compounds read low; DMSO median 0, no signal -100; GFP signal change (wild-type ribosome), % (test concentration not listed); hit rate 1.6% among 350,000;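 active means significant combined selectivity score with lowered wild-type GFP, culture density cut under 30%, mutant RFP and density less affected; inactive means any of these conditions unmet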; further: one replicate is shown; some compounds called inactive have numbers as strong as hits
ALR H2O2 inh – inhibitors of human ALR sulfhydryl oxidase, primary screen, biochemical, H2O2 detection, HRP-luminol luminescence, single point; purified ALR, DTT oxidation; hit rate 3.8% among 290,000; FAD-linked sulfhydryl oxidase ALR (Homo sapiens), P55789; inhibition, % (no concentration beside the values);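 active means mean and each replicate at 75% or more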;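 further: stock transfer was 7.5 nL into about 7.5 µL; 0% = neutral wells and 100% = wells with inactivated enzyme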
Target sequence (P55789 whole entry, looked up): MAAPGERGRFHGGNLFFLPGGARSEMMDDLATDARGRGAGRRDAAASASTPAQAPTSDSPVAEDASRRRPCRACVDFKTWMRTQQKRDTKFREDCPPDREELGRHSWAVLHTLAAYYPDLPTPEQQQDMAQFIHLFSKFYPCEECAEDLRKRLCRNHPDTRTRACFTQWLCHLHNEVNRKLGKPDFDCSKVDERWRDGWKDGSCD
HNF4A DNA FP – change in binding of human HNF4A to DNA, primary screen, biochemical, fluorescence polarization, FITC-DNA | Hepatocyte nuclear factor 4-alpha (Homo sapiens), P41235 | 1 h | activity change, % at 10 µM | hit rate 0.3% among 360,000 | AID 1224865, 2016; in the data active means activity change above about 30%, passing the limit was not always enough;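 further: controls were the assay level and a saturating level of protein; the project sought stronger binding though the title names inhibitors; some compounds called inactive have numbers as strong as hits; positive values seem to mean higher polarization but the record does not say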
MLL AF4-AF9 inh – inhibitors of AF4 peptide binding to AF9, primary screen, biochemical, AlphaScreen, biotin-AF4 peptide, FLAG-AF9, single point | Protein AF-9 (Homo sapiens), P42568 | inhibition, % at 10 µM | hit rate 0.47% among 350,000;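 active means every replicate reaching a set inhibition limit, whatever the replicate mean, cut at about 25% in these data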;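 further: 0% = plate neutral control median and 100% = total signal loss; the record names both 10 and 1 µM as test concentration; the first replicate is given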
Target sequence (P42568 whole entry, looked up): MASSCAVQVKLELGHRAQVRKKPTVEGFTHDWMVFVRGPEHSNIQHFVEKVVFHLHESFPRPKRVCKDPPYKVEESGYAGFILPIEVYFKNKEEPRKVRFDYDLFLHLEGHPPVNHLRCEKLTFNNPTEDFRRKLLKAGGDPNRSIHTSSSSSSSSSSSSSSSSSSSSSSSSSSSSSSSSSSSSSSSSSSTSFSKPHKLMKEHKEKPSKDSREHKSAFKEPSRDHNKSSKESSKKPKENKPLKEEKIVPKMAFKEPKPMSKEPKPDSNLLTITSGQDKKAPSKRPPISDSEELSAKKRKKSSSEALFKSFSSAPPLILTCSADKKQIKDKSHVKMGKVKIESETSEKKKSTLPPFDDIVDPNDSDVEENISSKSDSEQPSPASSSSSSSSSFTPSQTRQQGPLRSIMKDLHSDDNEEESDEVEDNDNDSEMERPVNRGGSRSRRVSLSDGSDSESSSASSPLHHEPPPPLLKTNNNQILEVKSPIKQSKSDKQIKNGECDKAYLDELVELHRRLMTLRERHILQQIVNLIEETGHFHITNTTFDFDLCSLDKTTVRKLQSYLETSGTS
Ecoli rRNA inh OD600 – also measured in Ecoli rRNA inh; calls as there; OD600 change, %; measured here: OD600 growth;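 optical density of the mix in the first replicate; 0 = DMSO median and -100 = no signal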
Ecoli rRNA inh RFP – second read-out of Ecoli rRNA inh, no call of its own (marks repeat the call); RFP signal change, %; measured here: RFP humanized mutant strains;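 first replicate; 0 = DMSO median and -100 = no signal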
The depositor's hits bear a star; i = inactive; nt = no result given; + = active, no number. Only part of the results is shown. The share of hits here may be higher or lower than overall.

smiles,Ecoli growth,Vif TR-FRET,FGF22 binding,Ecoli rRNA inh,Ecoli rRNA inh OD600,Ecoli rRNA inh RFP,ALR H2O2 inh,HNF4A DNA FP,MLL AF4-AF9 inh
CCOC(=O)C1CCCN(C(=O)c2cccc(S(=O)(=O)N3CC(C)OC(C)C3)c2)C1 (configuration not stated),0.7,-5%,i,12,12,3.5,nt,-1.2,nt
CN(C)CCCNC(=O)C[C@@H]1CC[C@H](NC(=O)Cc2cccnc2)[C@@H](CO)O1,nt,nt,i,-1,5,0.9,nt,nt,-4.2
Cn1ncc2c(=O)[nH]cnc21,0.72,0%,i,21,11,-2.4,-4,2.1,-1.3
CC(=O)N1N=C(c2ccccc2)OC1(C)CC(=O)Nc1ccccc1 (configuration not stated),0.74,nt,i,-6,-3,-4.8,-11,2.9,-22
CCN(CC)C(=O)c1ncn(C)c1C(=O)N(CC)CC,nt,nt,i,-8,3,6.4,2,-2.0,-4.7
Cc1ccc(S(=O)(=O)N(CC2CO2)c2cc(Cl)ccc2Cl)cc1 (configuration not stated),0.7,nt,i,-17,-24,3.6,-6,-1.7,-3.7
O=C(Nc1ccc(F)c(F)c1)c1ccc(-n2cncn2)c([N+](=O)[O-])c1,0.65,0%,i,nt,nt,nt,-13,-3.4,3.4
CCc1c(C(=O)Nc2ccc(OC)c(Cl)c2)[nH]c(C)c1C(C)=O,0.74,-1%,nt,nt,nt,nt,nt,2.6,nt
OCC[C@@H]1C[C@H](O)[C@@H](O)[C@@]2(OCc3cc(Cl)ccc32)O1,nt,nt,i,19,12,0.1,nt,-1.3,0.5
Cc1ccc(S(=O)(=O)N2CCCN(S(=O)(=O)c3ccc4ccccc4c3)CC2)cc1,0.72,-2%,nt,nt,nt,nt,-4,0.3,nt
CCCNC(=O)NC(C(=O)OC)C12CC3CC(CC(C3)C1)C2 (configuration not stated),0.67,-2%,nt,nt,nt,nt,-4,-2.9,nt
O=c1c2cnn(-c3ccccc3)c2nc(-c2cccs2)n1-c1cccc(Cl)c1,0.73,nt,nt,nt,nt,nt,-3,3.0,nt
C[C@H](CO)N1C[C@H](C)[C@H](CN(C)C(=O)Nc2ccc(C(F)(F)F)cc2)Oc2ccc(NC(=O)Nc3ccc4c(c3)OCO4)cc2CC1=O,nt,nt,i,-2,-2,0.5,nt,nt,-2.0
COc1ccc(NC(=O)N(C)C[C@@H]2Oc3ccc(NS(=O)(=O)c4c(C)noc4C)cc3CC(=O)N([C@H](C)CO)C[C@H]2C)cc1,nt,nt,i,7,10,-1.7,nt,nt,-0.8
C[C@H](CO)N1C[C@H](C)[C@H](CN(C)Cc2ccncc2)Oc2ccc(NC(=O)Nc3ccccc3)cc2CC1=O,nt,nt,i,-5,-13,0.3,nt,nt,-2.9
CCOc1ccc(NC(=O)COC(=O)c2cccnc2)cc1,0.67,2%,nt,nt,nt,nt,nt,5.6,nt
CCOc1ccccc1NC(=O)Nc1cccc(S(N)(=O)=O)c1,0.65,1%,i,-9,-3,0.5,-7,4.0,1.9
CN(C)/C=C(\C#N)S(=O)(=O)c1ccc(Cl)cc1,0.67,-4%,i,18,18,0.3,-1,-1.4,-2.2
Cc1ccoc1C(=O)NCc1occc1C(=O)O,0.68,30%,nt,nt,nt,nt,-26,-10,nt
Cc1ccc(-c2ocnc2C(=O)Nc2ccccc2NC(=O)c2ccccn2)cc1,0.65,nt,i,-10,-25,0.8,nt,-0.9,-3.1
CCC(=C/c1sc2ccc3ccccc3c2[n+]1C)/C=C1\Sc2ccc3ccccc3c2N1C,nt,7%,i,1,-12,1.9,-38,21,13
CC(C)=CCN1CCN(Cc2ccc(N3CCNC3=O)cc2)CC1CCO (configuration not stated),0.69,30%,i,10,-2,0.2,nt,2.4,1.0
CC(C)(C)c1cc(C(=O)N2CCc3ccccc3C2)ccn1,0.69,-3%,i,1,8,-0.4,nt,-0.5,-8.8
COc1cc(/C=C2/SC(=O)NC2=O)ccc1OC(=O)c1ccco1,0.73,nt,i,-1,9,-1.2,22,2.4,-0.8
Cc1ccc(NC(=O)CN2C(=O)NC(Cc3c[nH]c4ccccc34)C2=O)cc1 (configuration not stated),0.7,-5%,+,-1,-7,7.5,0,-3.5,-1.7
CCC(=O)c1c(NC(C)C)cc(C)oc1=O,0.65,-6%,i,-5,7,0.1,1,-0.2,0.5
O=C(OC(C(=O)NCc1ccccc1)c1ccccc1F)c1ccco1 (configuration not stated),0.63,nt,i,-2,-4,0.4,2,-0.6,4.7
Cc1c(C(=O)OC(C)C)sc(NC(=O)C2CCCO2)c1C(=O)OC(C)C (configuration not stated),0.69,-1%,i,11,8,1.6,0,3.2,-29
CC(Sc1nc2scc(-c3ccccc3)c2c(=O)[nH]1)C(=O)NC(N)=O (configuration not stated),0.72,-13%,i,11,7,-0.1,-6,4.8,2.2
CC1=[N+](C)c2c(ccc3cccnc23)C1(C)C,0.62,nt,i,-37,-66,31,nt,0.1,29*
O=C(N[C@@H]1CC[C@H](CC(=O)N2CCCCC2)O[C@@H]1CO)c1ccc2c(c1)OCO2,nt,nt,i,2,6,-1.8,nt,nt,-1.0
CCS(=O)(=O)N1N=C(c2ccc(NS(C)(=O)=O)cc2)CC1c1ccccc1 (configuration not stated),0.7,-7%,nt,nt,nt,nt,-2,86*,nt
COC(=O)c1ccc(CN2CCC(CO)(Cc3ccc(OC)cc3)CC2)cc1,0.71,-12%,i,12,-1,-1.8,-2,-1.5,2.2
CCNc1nc(Oc2ccccc2)nc(OC(C)C(=O)OCC)n1 (configuration not stated),0.73,32%,nt,nt,nt,nt,3,4.6,nt
C[C@@H]1CCCCO[C@@H](CN(C)C(=O)C2CCCCC2)[C@@H](C)CN([C@@H](C)CO)C(=O)c2cc(NC(=O)Nc3ccc(C(F)(F)F)cc3)ccc2O1,nt,nt,i,3,6,0.3,nt,nt,-0.8
Cc1noc(C)c1CSCC(=O)Nc1ccc(S(C)(=O)=O)cc1,0.64,0%,i,0,5,-2.4,-11,-2.7,-1.7
O=C(C[C@H]1C=C[C@@H](NC(=O)C2CC2)[C@@H](CO)O1)Nc1ccccc1,nt,nt,i,5,4,0.6,nt,nt,0.0
CC(=O)Nc1sc(C)c(C)c1C(=O)OCCOc1ccccc1,0.7,-7%,i,1,-3,-0.1,-4,-45,-1.1
CCC(C)N(C(=O)Cn1c(Cl)nc2c1c(=O)n(C)c(=O)n2C)C1CCS(=O)(=O)C1 (configuration not stated),0.63,19%,i,1,2,-0.6,2,4.5,-0.5
CSc1ccccc1C(=O)NCC(c1ccco1)N(C)C (configuration not stated),0.68,nt,nt,2,5,-1.5,-3,-0.1,3.5
O=C(Nc1ccc(-c2cnco2)cc1)c1ccccc1,0.69,-8%,i,2,4,1.2,-5,7.7,-3.6
CO[C@H]1CN(C)C(=O)c2cc(NC(=O)C3CC3)ccc2OC[C@@H](C)N(C(=O)c2cccnc2)C[C@@H]1C,nt,nt,i,1,8,-0.9,nt,nt,2.0
O=C(CCc1nnc(-c2ccccc2)o1)c1ccc(Cl)cc1,0.69,-18%,i,0,0,-3.7,3,8.0,-3.7
N#Cc1cc(C#N)c(SCC(=O)NCC2CCCO2)nc1N (configuration not stated),0.67,nt,i,9,0,1.5,nt,-2.5,-2.2
Cc1ccc(C)c(NC(=S)NNC(=O)c2sccc2C)c1,0.7,2%,nt,nt,nt,nt,21,-1.8,nt

Full records from above:
CC(=O)Nc1sc(C)c(C)c1C(=O)OCCOc1ccccc1 in the list: Ecoli growth: 0.7; Vif TR-FRET: -7%; FGF22 binding: i; Ecoli rRNA inh: 1; Ecoli rRNA inh OD600: -3; Ecoli rRNA inh RFP: -0.1; ALR H2O2 inh: -4; HNF4A DNA FP: -45; MLL AF4-AF9 inh: -1.1
N#Cc1cc(C#N)c(SCC(=O)NCC2CCCO2)nc1N (configuration not stated) in the list: Ecoli growth: 0.67; Vif TR-FRET: nt; FGF22 binding: i; Ecoli rRNA inh: 9; Ecoli rRNA inh OD600: 0; Ecoli rRNA inh RFP: 1.5; ALR H2O2 inh: nt; HNF4A DNA FP: -2.5; MLL AF4-AF9 inh: -2.2
CO[C@H]1CN(C)C(=O)c2cc(NC(=O)C3CC3)ccc2OC[C@@H](C)N(C(=O)c2cccnc2)C[C@@H]1C in the list: Ecoli growth: nt; Vif TR-FRET: nt; FGF22 binding: i; Ecoli rRNA inh: 1; Ecoli rRNA inh OD600: 8; Ecoli rRNA inh RFP: -0.9; ALR H2O2 inh: nt; HNF4A DNA FP: nt; MLL AF4-AF9 inh: 2.0

Later entries.
smiles,Ecoli growth,Vif TR-FRET,FGF22 binding,Ecoli rRNA inh,Ecoli rRNA inh OD600,Ecoli rRNA inh RFP,ALR H2O2 inh,HNF4A DNA FP,MLL AF4-AF9 inh
COc1ccc(C)cc1NC(=O)NCCC1=CCCCC1,0.71,6%,i,-7,-1,1.5,-26,1.9,0.2
COc1ccc(CNC(=O)CN(c2ccc(OC)cc2)S(=O)(=O)c2c(C)[nH]c(=O)[nH]c2=O)cc1,0.7,4%,i,5,5,0.8,2,-2.6,-0.2
CO[C@H]1CN(C)C(=O)c2cc(NS(=O)(=O)c3cn(C)cn3)ccc2OC[C@H](C)N(CCC(F)(F)F)C[C@H]1C,nt,nt,i,-4,-1,-3.2,nt,nt,-1.0
Cc1cccc(N(C(=O)CNC(=O)c2ccco2)C(C(=O)NC2CCCC2)c2ccncc2)c1 (configuration not stated),0.7,-5%,nt,nt,nt,nt,-5,5.1,nt
CCCOc1ccccc1N/C(=N/c1nc(C)cc(C)n1)NC(=O)Nc1ccc(Cl)cc1,nt,2%,nt,nt,nt,nt,-5,-1.5,nt
CCC(C)(C)NC(=O)CN(C(=O)c1csnn1)c1cccc2c1CCCC2,0.63,1%,i,6,5,3.4,-5,-1.3,-0.8
COC(=O)c1ccccc1NC(=O)C1CCN(C(=O)N2CCOc3ccccc32)CC1,0.73,nt,i,-7,-38,-4.4,-3,3.3,-23
CNC[C@H]1OCCCC[C@@H](C)Oc2ccc(NC(=O)NC(C)C)cc2C(=O)N([C@H](C)CO)C[C@@H]1C,nt,nt,i,3,6,-0.7,nt,nt,-1.5
COc1cc(NS(=O)(=O)N2CCCC2)cc(OC)c1OC,0.7,2%,nt,nt,nt,nt,-12,-4.5,nt
O=C(Nc1ccc(Br)cc1)c1ccco1,0.6,0%,i,3,4,-6.5,41,-1.9,0.6
CC(C)(C)NC(=O)c1ccc(NC(=O)C2COc3ccccc3O2)cc1 (configuration not stated),0.7,-1%,nt,nt,nt,nt,-11,1.3,nt
N#CCCN(C(=S)NC(=O)C1CCCCC1)c1ccccc1F,0.72,1%,i,15,7,2.6,-5,2.8,0.4
CC(=O)N(C)C[C@@H]1Oc2ncc(-c3ccc(C(=O)N(C)C)cc3)cc2C(=O)N([C@H](C)CO)C[C@H]1C,nt,nt,i,5,17,-2.6,nt,nt,-3.3
CO[C@@H]1CN(C)C(=O)c2cc(NC(C)=O)ccc2OC[C@H](C)N(Cc2ccccc2C(=O)O)C[C@H]1C,nt,nt,i,0,-9,-1.1,nt,nt,-3.4
